Arbovirus anti: antivirals against arbovirus infection, primary screen, cell-based, full library, 10K replicate subset; arbovirus infection cell-based antiviral screen; inhibition, % at 10 µM; actives 0.37% (n = 200,000);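 active = inhibition from about 30%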;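 note: bluetongue infection of BSR cells; cell survival read as ATP light after 72 h; 0% = infected wells without compound and 100% = uninfected wells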
Mtb bLac sens: beta-lactam sensitization of Mtb H37Rv, H37Rv. M. tuberculosis H37Rv growth with meropenem, percent inhibition; hits of this screen are not shown here. inhibition, % at 25 µM. actives 0.27% (n = 330,000). AID 434955, 2010;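 active = about 74% or more and at least 40 points above the plate without the antibiotic, then above 30% in a dose series; inconclusive = first-round hits that could not be retested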;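 note: growth measured after seven days incubation then overnight dye step; 0% = bacteria only wells and 100% = bacteria with antibiotic; twin plates without the antibiotic show which effects depend on it; some results filed as inactive read as strong as hits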
Mtb growth: M. tuberculosis H37Rv growth inhibitors, H37Rv strain (AID 1626) | actives 0.95% (n = 220,000) | M. tuberculosis H37Rv growth inhibition; higher % means a stronger effect | one-dose inhibition, % at 10 µM; IC50 in µM for titrated hits;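 active = confirmed in a dose series; inconclusive = inhibition above 80% but not taken into the dose series; inactive = below 80% or under 30% at every dose of the series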;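 note: bacteria incubated seven days before Alamar blue readout; 0% = bacteria only wells and 100% = bacteria with antibiotic wells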
YopH PTP inh: YopH tyrosine phosphatase inhibitors, primary screen, biochemical, fluorescence Ex485/Em525 | YopH tyrosine phosphatase [Yersinia enterocolitica] | inhibition, %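 (about 10 µM by stock and volumes)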 | actives 0.16% (n = 140,000) | AID 898, 2007;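 active = inhibition of 50% or more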;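 note: controls were vehicle for no effect and minimum signal wells for full effect; inactives centre near -20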
RecA intein inh: Mtb RecA intein splicing inhibitors, primary screen, biochemical, fluorescence, HTS; Protein RecA (Mycobacterium tuberculosis (strain ATCC 25618 / H37Rv)), P9WHJ3; cell-free RecA intein splicing; inhibition, %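 (about 9 µM by stock and volumes)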; actives 0.75% (n = 290,000); in the data active = inhibition above about 30%; inconclusive = no clear call, values can overlap the other calls;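 note: 0% = vehicle wells and 100% = reference inhibitor control wells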
Target sequence (P9WHJ3 whole entry, looked up): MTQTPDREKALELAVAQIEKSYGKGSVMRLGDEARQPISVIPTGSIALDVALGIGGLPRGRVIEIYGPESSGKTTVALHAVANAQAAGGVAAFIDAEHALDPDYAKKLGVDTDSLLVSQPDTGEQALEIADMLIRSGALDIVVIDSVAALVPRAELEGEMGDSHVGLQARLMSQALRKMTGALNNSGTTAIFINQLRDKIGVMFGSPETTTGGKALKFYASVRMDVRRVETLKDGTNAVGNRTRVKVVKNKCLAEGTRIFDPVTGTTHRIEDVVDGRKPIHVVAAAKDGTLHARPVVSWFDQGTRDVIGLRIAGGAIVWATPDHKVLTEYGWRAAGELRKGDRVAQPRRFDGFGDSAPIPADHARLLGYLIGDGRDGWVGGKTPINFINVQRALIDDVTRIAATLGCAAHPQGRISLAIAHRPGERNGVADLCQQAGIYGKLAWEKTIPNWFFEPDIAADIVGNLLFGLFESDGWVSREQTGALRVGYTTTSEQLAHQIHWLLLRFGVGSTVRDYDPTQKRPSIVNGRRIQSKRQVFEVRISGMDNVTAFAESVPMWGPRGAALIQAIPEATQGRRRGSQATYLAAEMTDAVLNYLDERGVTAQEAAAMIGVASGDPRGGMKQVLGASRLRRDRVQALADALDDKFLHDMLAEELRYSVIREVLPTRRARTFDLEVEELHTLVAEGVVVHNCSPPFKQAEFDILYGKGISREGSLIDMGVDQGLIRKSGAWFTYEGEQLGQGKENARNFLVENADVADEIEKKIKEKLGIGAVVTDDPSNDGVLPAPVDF
Arbovirus anti repeat: further read-out of Arbovirus anti, marked with its call; inhibition, %; measured here: 10K subset replicate screen; many hits read low in the repeat;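 first of two repeat runs on a subset; 0% = infected and 100% = uninfected wells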
The depositor's hits bear a star; ? = inconclusive; · = not tested or not shown.

SMILES	Arbovirus anti	Mtb bLac sens	Mtb growth	YopH PTP inh	RecA intein inh	others
COc1cc(/C=C/CO)ccc1O[C@@H]1O[C@H](CO)[C@@H](O)[C@H](O)[C@H]1O	·	-9	-10%	·	-1.1
CC(C)Sc1nnc([C@H](Cc2c[nH]c3ccccc23)NC(=O)OC(C)(C)C)o1	4	12	-3%	-10	2.6
CCOC(=O)C1=C(C)OC(N)=C(C#N)C1c1ccccc1 (configuration not stated)	1	-1	-4%	·	-2.9
Cc1cc(C)n(CC(=O)NNC(=O)CCCOc2ccc(Cl)c(C)c2)n1	·	-12	·	·	-0.9
COc1cccc(NC(=O)CN(C)S(=O)(=O)c2ccc(C)cc2)c1	-1	-2	-2%	-27	-1.1
O=C(CSc1n[nH]c(=O)n1Cc1ccco1)N1CCOCC1	·	2	0%	·	1.4
CC(=O)c1c(C)nc(Nc2nc(C)c3cc(C)ccc3n2)nc1C	8	-3	1%	·	-4.5
CCN(CCCNC(=O)C1CCN(C(=O)c2cc3sccc3n2C)CC1)Cc1ccccc1	·	?	·	·	-0.1
CC1=C(C(=O)OCc2ccccc2)C(c2ccc(N3CCOCC3)cc2)NC(=O)N1 (configuration not stated)	3	-16	2%	-40	-0.1	Arbovirus anti repeat=4
COc1ccc(-c2nc(-c3cccc(C(F)(F)F)c3)no2)cc1OC	14	46	2%	-43	0.6	Arbovirus anti repeat=5
CC12CCC(C(=O)N(c3ccc(Cl)cc3)C1=O)C2(C)C (configuration not stated)	10	2	-4%	0	2.3
COc1ccc(CCN(C)C2CCCN(C(=O)c3ccnn3C)C2)cc1OC (configuration not stated)	·	-2	·	·	-4.3
Cc1ccc(S(=O)(=O)N2CCN(S(=O)(=O)c3ccc(C)cc3)C2)cc1	5	-5	-4%	-29	1.8
O=C(NCc1ccccc1)Nc1cccn(Cc2ccccc2Cl)c1=O	-4	59	4%	·	·
Cc1cccc(CSc2nc3ccncc3n2CC(=O)Nc2cc(C)cc(C)c2)c1	-4	0	8%	-23	-1.0
CC(C)c1ccc(-c2nc3c([nH]2)c(=O)n(C)c(=O)n3C)cc1	3	3	-1%	-24	-0.6
O=C(COc1ccc(NS(=O)(=O)c2ccc(F)cc2)cc1)N1CCOCC1	-2	2	10%	·	-2.4
Cc1ccc(CN(C)Cc2cc(=O)oc3cc(C)c(Cl)cc23)cc1	·	4	·	·	3.6
COC(=O)c1sccc1NC(=O)Nc1ccc(C)cc1C	·	7	·	·	2.9
Cc1ccc(-c2csc(NC(=O)c3ccccc3Cl)c2C(=O)O)cc1	·	11	·	·	11
CSC(SC)=C(C#N)C(=O)c1ccccc1	·	-1	-4%	·	8.5
CCc1ccc2oc(=O)cc(CN3CCN(CCO)CC3)c2c1	11	-10	2%	-31	-2.0
CS(=O)(=O)c1ccc(N2CCN(C3CC(=O)NC3=O)CC2)cc1 (configuration not stated)	1	-7	2%	18	12
Cn1c(=O)c2c(nc(N3CCCCC3)n2C)n(C)c1=O	-2	-4	0%	-39	-0.5
COC(=O)c1cccc(NC(=O)Cc2ccsc2)c1	·	-4	·	·	2.8

Reprinted at random: four records from the list, in no set order.
SMILES	Arbovirus anti	Mtb bLac sens	Mtb growth	YopH PTP inh	RecA intein inh	others
CSC(SC)=C(C#N)C(=O)c1ccccc1	·	-1	-4%	·	8.5
CC12CCC(C(=O)N(c3ccc(Cl)cc3)C1=O)C2(C)C (configuration not stated)	10	2	-4%	0	2.3
O=C(CSc1n[nH]c(=O)n1Cc1ccco1)N1CCOCC1	·	2	0%	·	1.4
CC(C)c1ccc(-c2nc3c([nH]2)c(=O)n(C)c(=O)n3C)cc1	3	3	-1%	-24	-0.6

The listing continues.
SMILES	Arbovirus anti	Mtb bLac sens	Mtb growth	YopH PTP inh	RecA intein inh	others
O=C(OCCN1CCOCC1)c1cccc(F)c1	·	6	·	·	0.8
COc1ccc(S(=O)(=O)NCc2nc3nc(C)cc(C)n3n2)cc1OC	·	-2	·	·	-0.1
C=CCN(CC=C)C(=S)NC(=O)c1ccc(OC)c(Br)c1	-22	84	?	-2	1.8
CN1CCN(S(=O)(=O)c2ccc(-c3ccc(Cl)cc3)cc2)CC1	-2	-9	-6%	9	1.0
O=C(CNC(=O)C12CC3CC(CC(C3)C1)C2)N/N=C\c1ccccn1	1	3	-13%	·	-2.4
O=C(CNS(=O)(=O)c1ccccc1)NCC(=O)N1CCCCC1	·	-8	·	·	-1.1
O=C(NCc1cccnc1)c1ccc(NC(=O)c2cccc([N+](=O)[O-])c2)cc1	-9	0	-1%	·	0.1
CCOc1ccc(CCNC(=O)COC(=O)/C=C/c2ccccc2OC)cc1OCC	·	-1	·	·	0.9
O=C(Nc1ccc(Cl)cn1)c1cc(S(=O)(=O)N2CCCCC2)ccc1Cl	1	-1	-4%	12	-2.0
Cc1c(NC(=O)CSc2nnnn2-c2ccc(F)cc2)c(=O)n(-c2ccccc2)n1C	6	1	-5%	·	-0.4
CCOC(=O)CNC(=O)c1c(C)nn(C)c1Cl	16	-1	2%	·	-1.4
CCN(CC)c1nc(N)c([N+](=O)[O-])c(NCCO)n1	0	-1	-8%	-38	1.6
Cc1csc2nc(O)c(C(=O)NC3CCCCC3)c(=O)n12	·	-2	·	·	6.3
C=CCNC(=O)c1ccc(-c2cccc([N+](=O)[O-])c2)o1	-4	2	6%	·	-2.0
CNC(=S)N(CCc1ccc(OC)c(OC)c1)Cc1cc2c(C)cc(C)cc2[nH]c1=O	8	-1	-1%	0	1.9
COc1cnc(SCc2ccc(Cl)cc2Cl)nc1Cl	2	-1	2%	-38	·
Cc1ccc(S(=O)(=O)N2CCC(C(=O)O)CC2)cc1	8	2	-8%	·	-0.8
COC(=O)C1=C(C(C)=O)C(c2ccc(C(=O)OC)cc2)n2nnnc2N1 (configuration not stated)	2	-17	-14%	-11	-1.3
Cc1c(C(=O)OCC(=O)Nc2ccc3c(c2)OCO3)cccc1[N+](=O)[O-]	-9	6	-6%	-19	0.9
CCN(CC)C(=O)CN(c1ccc2c(c1)OCO2)S(C)(=O)=O	10	10	-7%	-7	-1.2
CCOc1c2c(nc3ccc(Cl)cc13)CCC2	8	65	5.1µM*	-51	1.5
CCCN(CCC)CC(=O)Nc1cccc2c1OCO2	-4	-2	2%	-5	-2.1
COc1ccc(C2CC(c3cccs3)=NN2S(C)(=O)=O)cc1OC (configuration not stated)	3	4	-5%	·	-1.7
Cc1ccc2c(c1)N(CC(=O)NC1CCCc3ccccc31)C(=O)CO2 (configuration not stated)	5	-14	-5%	-50	-1.0
CCOc1ccc(OCC)c(NS(=O)(=O)c2ccc3c(c2)n(C)c(=O)c(=O)n3C)c1	8	-2	-18%	0	0.7

Next part (three carried over from the part before).
SMILES	Arbovirus anti	Mtb bLac sens	Mtb growth	YopH PTP inh	RecA intein inh	others
COc1ccc(C2CC(c3cccs3)=NN2S(C)(=O)=O)cc1OC (configuration not stated)	3	4	-5%	·	-1.7
Cc1ccc2c(c1)N(CC(=O)NC1CCCc3ccccc31)C(=O)CO2 (configuration not stated)	5	-14	-5%	-50	-1.0
CCOc1ccc(OCC)c(NS(=O)(=O)c2ccc3c(c2)n(C)c(=O)c(=O)n3C)c1	8	-2	-18%	0	0.7
COc1ccccc1N1CCN(C(=O)CSc2nnc3n2C(C)(C)Cc2ccccc2-3)CC1	2	47	-7%	-24	2.1
CCOc1ccc(NC(=S)NCCCN2CCN(c3ccc(OC)cc3)CC2)cc1	-3	38	6%	·	-3.2
CCN(CC)c1ccc(CN(C(=O)c2cc(OC)c(OC)c(OC)c2)C2CCS(=O)(=O)C2)cc1 (configuration not stated)	2	-6	4%	-16	-3.1
CCOC(=O)c1cc(C(C)C)sc1NC(=O)COC(=O)CCS(=O)(=O)c1ccccc1	-8	29	57%	-15	8.3
Cc1ccc(C)c(S(=O)(=O)NC(C)CCc2ccccc2)c1 (configuration not stated)	·	-8	·	·	8.6
COc1ccc(-c2cnc3ccccc3n2)cc1NC(=O)CNC(=O)c1ccccc1	·	5	·	·	-4.7
ClCc1nnc(-c2ccccc2)o1	6	98	8%	-14	-0.7
O=C(Nc1cccc(S(=O)(=O)N2CCCC2)c1)c1ccccc1OC(F)F	·	1	·	·	-3.0
O=C(NNC1CC(=O)N(c2ccc(Br)cc2)C1=O)c1ccco1 (configuration not stated)	8	-8	-8%	·	2.2
COc1ccc(NC(=O)CC(Cc2ccc(Cl)cc2)C(=O)O)cc1 (configuration not stated)	·	6	·	·	2.2
C/C(=N\Nc1ccc([N+](=O)[O-])cc1)c1ccc(C#N)cc1	·	-2	-4%	·	0.8
O=C(NC1CCCCCC1)c1cc(-c2ccccn2)nc2ccccc12	-13	10	6%	·	0.7
COc1ccccc1NC(=S)NCC1CCCCC1	16	4	1%	-30	0.0
O=C(N/N=C/c1c(O)ccc2ccccc12)c1cccnc1	·	6	·	·	-9.6
Cc1ccn2c(CNCc3cnn(C)c3)c(C(=O)N3CCCCCC3)nc2c1	·	-3	·	·	-5.1
Cc1cccc(C(=O)NC(=S)N2CCN(C(=S)NC(=O)c3cccc(C)c3)CC2)c1	9	1	12%	-16	-0.3
COc1ccc2c(c1)c1nc3n(c(=O)c1n2CC(=O)Nc1ccccc1)CCCS3	·	5	·	·	-1.9
C1=C(c2cccc3ccccc23)N2CCN=C2S1	-9	0	1%	-28	-0.4
CCN(CC)S(=O)(=O)c1ccc(NCCCn2ccnc2)c([N+](=O)[O-])c1	·	-11	·	·	-1.9
Cc1cc2nc(-c3ccc[nH]c3=O)n(Cc3cccc(F)c3)c2cc1C	·	-5	·	·	-1.8
CCN(CC)CCn1c(=S)[nH]c2ccccc2c1=O	5	9	-2%	0	2.0	Arbovirus anti repeat=-2
COc1ccccc1N1CCN(C(=O)c2ccoc2C)CC1	3	0	2%	-31	0.8
O=c1cc(N2CCN(c3ccccc3)CC2)[nH]c(=O)n1-c1ccccc1Cl	-6	10	6%	-18	23
C/C(=N\NC(=O)C1CC1)c1ccc(Cl)cc1	-15	1	-7%	-21	-0.5
O=C1CC(=C(c2ccccc2)c2ccccc2)C(=O)N1CCCCN1CCN(c2cccc(Cl)c2)CC1	7	100	4.5µM*	-22	21

Further entries.
SMILES	Arbovirus anti	Mtb bLac sens	Mtb growth	YopH PTP inh	RecA intein inh	others
Fc1ccc(NCc2cccnc2)cc1	-2	0	-6%	-5	-1.4
COc1ccc(NC(=O)Nc2nnc(-c3ccncc3)s2)cc1	18	5	-2%	·	-0.6
O=C(NNC1CC(=O)N(c2ccc(Br)cc2)C1=O)c1cccs1 (configuration not stated)	·	-5	-11%	·	-2.3
CCOc1ccc(NC(=S)N(Cc2ccc(N(C)C)cc2)Cc2ccco2)cc1	-7	·	9%	-11	7.8
O=C(O)c1cccc(Nc2ccc([N+](=O)[O-])c3nonc23)c1	·	14	·	·	1.8
CN(C)S(=O)(=O)c1ccc(C(=O)NCc2ccc3[nH]c4c(c3c2)CCCC4)cc1	-7	0	12%	-27	-22
CC(C)n1c(=O)c(C=Nc2ccc(S(N)(=O)=O)cc2)c(O)n(Cc2ccco2)c1=O	11	4	-8%	-19	-2.2
CC(=O)Nc1ccn(-c2ccccc2)n1	-7	66	1%	-8	-2.3
Cc1cc(C)n(CCc2nc(-c3ccc(-c4ccccc4)cc3)cs2)n1	20	3	2%	-25	14
O=C1NC(=O)C(=Cc2ccc3ccccc3c2)C(=O)N1	·	5	-7%	·	-0.1
CCc1ccc(OC(C)C(=O)N(Cc2ccco2)C2CCS(=O)(=O)C2)cc1 (configuration not stated)	·	1	·	·	1.1
CCCCOC(=O)C1=C(C)NC2(O)c3ccccc3C(=O)C12O (configuration not stated)	-7	2	-9%	67*	17
COc1cccc(OC)c1C(=O)n1nc(C)cc1C	0	5	-11%	1	1.9
CC(C)CC(=O)NC(=S)N1CCCCCC1	2	-7	-8%	-32	2.3
COc1ccccc1Nc1cc(C(=O)NC2CCCC2)c2ccccc2n1	·	4	·	·	-0.6
Cc1oc2c(Cl)c(Cl)c(O)c(CN(C)C)c2c1C(=O)c1ccc(Cl)cc1	·	4	·	·	-0.1
O=C(CC(=O)NCCc1ccccc1)NCCc1ccccc1	·	-10	·	·	-2.6
CCCCn1nnnc1SCC(=O)Nc1ccc(F)cc1	-2	-11	1%	-40	-1.7
Oc1ccc(-c2nc3c4c(ncn3n2)-c2ccccc2CC42CCCC2)cc1	-39	9	7%	-18	1.8
CC(=O)NCC1CCN(C(=O)C2CCC(=O)N(CCc3cccc(F)c3)C2)CC1 (configuration not stated)	·	4	·	·	-0.4
CCN(CC)c1ccc(NC2=C(Cl)C(=O)c3ccccc3C2=O)cc1	-44	7	?	10	·

From PubChem BioAssay

This is a subset; the hit share may differ from the screen's.
